Assay outcomes as filed in PubChem.
HSV augment = HSV replication enhancement. maximum fold increase. HSV replication augmentation in cells, fold increase. actives 0.005% (n = 220,000);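 active = peak rise of 1.5-fold or more in the series; tested in PC3 cells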;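 note: first round at 10 µM; read as green reporter fluorescence; hits show the peak of a series up to 25 µM; 1 = signal of infected wells without compound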
RGS16-Gao HTS = modulates binding between human RGS16 and Galphao; O15492+P09471; bead-based flow cytometry RGS16-Galphao binding, fluorescence; actives lie on both sides; binding response (% of control), % at 10 µM; actives 0.38% (n = 220,000);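 active = below 25% or above 175%, edge rows of some plates excepted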;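 note: Galphao activated by GDP with aluminum fluoride before binding; 100% = wells without compound and 0% = beads without RGS; some results beyond the cut were filed as inactive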
Insulin prom inh = TRM-6 insulin promoter activity inhibition. actives 0.9% (n = 130,000). inhibition, % at 2 µM. TRM-6 cells (human fetal islet line), insulin promoter-eGFP reporter, imaging; reporter expression induced with tamoxifen;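 active = inhibition above the mean plus 3 SD, with well images judged a real hit on visual review, cut at about 60% in these data, passing the limit was not always enough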
PKD1 kinase inh = inhibitors of human PKD1 kinase; Q15139; inhibition, %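 (about 10 µM by stock and volumes)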; PKD1 kinase fluorescence polarization assay; AID 797; actives 0.056% (n = 200,000);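 active = inhibition of 50% or more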;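 note: controls were vehicle for no effect and a reference inhibitor for full effect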
Target sequence (Q15139 whole entry, looked up): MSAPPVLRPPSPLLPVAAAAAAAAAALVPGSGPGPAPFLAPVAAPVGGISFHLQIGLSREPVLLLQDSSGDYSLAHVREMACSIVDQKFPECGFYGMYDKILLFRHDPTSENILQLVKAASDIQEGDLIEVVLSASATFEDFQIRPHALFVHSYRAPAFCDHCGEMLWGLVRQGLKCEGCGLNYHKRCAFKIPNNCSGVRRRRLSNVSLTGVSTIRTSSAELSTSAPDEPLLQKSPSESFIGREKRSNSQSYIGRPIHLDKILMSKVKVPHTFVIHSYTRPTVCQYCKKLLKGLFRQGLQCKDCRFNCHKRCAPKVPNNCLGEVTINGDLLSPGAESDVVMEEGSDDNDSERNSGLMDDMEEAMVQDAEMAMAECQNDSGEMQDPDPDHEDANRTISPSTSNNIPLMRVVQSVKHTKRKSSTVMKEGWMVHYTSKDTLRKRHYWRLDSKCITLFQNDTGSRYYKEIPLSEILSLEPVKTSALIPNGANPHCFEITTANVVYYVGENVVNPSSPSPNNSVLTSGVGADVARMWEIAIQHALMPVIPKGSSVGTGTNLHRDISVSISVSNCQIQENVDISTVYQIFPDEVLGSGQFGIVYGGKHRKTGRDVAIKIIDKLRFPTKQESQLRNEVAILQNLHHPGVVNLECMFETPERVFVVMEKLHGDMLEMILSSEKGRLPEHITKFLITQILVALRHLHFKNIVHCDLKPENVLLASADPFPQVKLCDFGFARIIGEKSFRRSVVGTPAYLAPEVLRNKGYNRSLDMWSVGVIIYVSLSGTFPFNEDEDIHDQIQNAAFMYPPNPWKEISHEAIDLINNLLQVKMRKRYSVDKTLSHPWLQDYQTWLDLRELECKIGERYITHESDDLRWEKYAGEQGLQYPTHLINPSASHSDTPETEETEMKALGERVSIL
GALR2 ag = agonists of human galanin receptor 2 (GALR2); activation, %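 (tested at 5 µM)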; O43603; actives 0.48% (n = 140,000); GALR2-expressing cells, agonist activation read-out;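 active = above mean plus 3 SD of all compounds, about 5% in these data, not always enough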;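 note: 0% = vehicle buffer wells and 100% = reference agonist at full effect; tested in CHO reporter cells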
Insulin prom inh cell count = also measured in Insulin prom inh; calls as there; normalized cell count, %; measured here: cell count, toxicity; reference of the scale not given here;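 cells exposed to compound for 48 h; stained nuclei by imaging scaled within each plate; lower means fewer cells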
HSV augment primary fold = further read-out of HSV augment, marked with its call; fold increase; compound at 10 µM; measured here: primary screen fold increase 10 uM; tested in PC3 cells;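 GFP signal in the first replicate; 1 = infected wells without compound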
Numbers without * were called inactive; i = inactive; nt = no result given.

SMILES	HSV augment	HSV augment primary fold	RGS16-Gao HTS	Insulin prom inh	Insulin prom inh cell count	PKD1 kinase inh	GALR2 ag
Cc1ccc2cc3cc(C(=O)N4CCCCC4C)oc3nc2c1 (configuration not stated)	nt	nt	87	0	121	7	-0.3
COC(=O)c1ccc(-n2nnnc2SCc2ccccc2OC)cc1	i	0.98	102	-71	77	4	-2.8
CC(C)n1c(=O)[nH]c2cc(C(=O)Nc3ccccc3)ccc21	i	0.93	107	24	131	-6	nt
O=C(O)c1ccccc1Sc1ncnc2sc3c(c12)CCC3	i	0.92	105	nt	nt	0	nt
CN1C(=O)c2cccc(NCCCN3C(=O)c4ccccc4C3=O)c2C1=O	i	1.1	100	nt	nt	-10	-0.9
Cc1cc(NC(=O)C2C3C(=O)N(c4cccnc4)C(C(=O)NC(C)(C)C)C34C=CC2(C)O4)no1 (configuration not stated)	i	0.96	104	nt	nt	-6	nt
Cc1cc(C)c(C#N)c(SCSCc2ccccc2)n1	i	0.77	103	-48	119	12	-2.5
Cc1nnc(SCc2cc(=O)[nH]c(/N=C(\N)Nc3ccccc3)n2)s1	i	0.74	100	nt	nt	nt	nt
Cc1ccc(N(Cc2ccc(C(=O)Nc3ccccc3C(=O)NCc3ccco3)cc2)S(C)(=O)=O)cc1C	i	0.94	96	-38	48	-6	-2.2
O=C(Nc1ccc(F)cc1)NC1CCN(Cc2c(F)cccc2Cl)CC1	i	0.88	103	nt	nt	nt	nt
O=C(CSc1nc2[nH]ncc2c(=O)n1-c1ccccc1)NCc1cccs1	i	0.84	106	-29	118	-1	nt
COc1cccc(/C=N/NC(=O)CCc2ccccc2)c1	i	0.84	105	4	126	-2	-1.7
c1cn2c(Nc3ccc4c(c3)OCCO4)c(-c3ccc(N4CCOCC4)cc3)nc2cn1	i	1.1	98	nt	nt	nt	nt
Cc1ccc(-n2nnnc2SCC(=O)Nc2ccccc2-c2ccccc2)cc1C	i	1	112	nt	nt	-4	1.9
O=C(O)C1CCCN1c1nc(C(F)(F)F)nc2ccccc12 (configuration not stated)	i	1.1	101	nt	nt	5	nt
CNC(=S)N/N=C/c1ccc(-c2cccc(C(=O)O)c2)o1	i	0.95	105	nt	nt	nt	nt
Cc1nc(C)c(C(=O)Nc2ccccc2)s1	i	0.92	104	-10	94	11	-2.5
CCOC(=O)c1c(C)[nH]c(C(=O)COC(=O)c2ccc(O)cc2)c1C	i	0.79	106	nt	nt	nt	nt
O=C(Nc1ccccc1C(=O)N1CCOCC1)c1cccnc1	nt	nt	100	14	149	-1	-4.6
Cc1cc(C)n(C(=O)c2ccc(C)c(S(=O)(=O)N3CCOCC3)c2)n1	i	0.99	103	nt	nt	-6	-0.7

Single records, as listed above:
Results for `O=C(CSc1nc2[nH]ncc2c(=O)n1-c1ccccc1)NCc1cccs1` = HSV augment: i; HSV augment primary fold: 0.84; RGS16-Gao HTS: 106; Insulin prom inh: -29; Insulin prom inh cell count: 118; PKD1 kinase inh: -1; GALR2 ag: nt
Results for `O=C(O)C1CCCN1c1nc(C(F)(F)F)nc2ccccc12` (configuration not stated) = HSV augment: i; HSV augment primary fold: 1.1; RGS16-Gao HTS: 101; Insulin prom inh: nt; Insulin prom inh cell count: nt; PKD1 kinase inh: 5; GALR2 ag: nt

(listing goes on)
SMILES	HSV augment	HSV augment primary fold	RGS16-Gao HTS	Insulin prom inh	Insulin prom inh cell count	PKD1 kinase inh	GALR2 ag
CCCC(=O)Nc1ccc(C(=O)NNC(=O)c2cccs2)cc1	i	0.95	78	10	118	7	-4.9
O=c1oc2ccccc2c(NCc2cccc(F)c2)c1[N+](=O)[O-]	i	1.5	73	11	87	-14	-0.1
Cc1noc(C)c1S(=O)(=O)N(CC(=O)Nc1ccc2c(c1)OCCO2)c1ccc(C(C)C)cc1	i	0.97	103	nt	nt	9	-2.8
CN(Cc1nc2ccc(Cl)cc2[nH]1)Cc1nc(-c2cnccn2)no1	i	0.8	106	nt	nt	-1	nt
CCN(CCn1cccn1)C(=O)CCc1nnc(-c2ccc3c(c2)OCO3)o1	i	0.94	106	nt	nt	-8	nt
Cc1ccccc1NC(=O)N(CCc1nc2ccccc2[nH]1)Cc1ccccc1	i	0.9	113	-31	130	-4	-0.6
CCOC(=O)N1CCN(C(=O)c2ccc3c(=O)n(Cc4ccc(OC)cc4)c(=S)[nH]c3c2)CC1	i	0.85	45	-37	93	-5	-1.2
Cc1cc2cccc(C)c2nc1SCC(=O)N(C)c1nc(-c2ccccc2)cs1	i	0.72	99	-20	95	-7	-2.6
COC(=O)C1NN=C(C(=O)c2ccccc2)C1c1ccccc1 (configuration not stated)	i	0.91	110	0	111	-14	0.1
O=C(CCSc1nccn1Cc1ccccc1)N1CCOCC1	i	0.95	102	8	131	-9	-0.9
COc1cccc(C(=O)CN2CCN(S(=O)(=O)c3cccc([N+](=O)[O-])c3)CC2)c1	i	0.99	101	21	112	7	-2.1
CCC(CO)NCc1ccc(OCC(=O)Nc2cccc(C(F)(F)F)c2)c(OC)c1 (configuration not stated)	i	0.72	85	nt	nt	6	-0.8
CCC1(c2ccccc2)NC(=O)N(CC(=O)N2CCN(S(=O)(=O)c3ccccc3)CC2)C1=O (configuration not stated)	i	0.99	100	4	80	-12	-0.3
O=C(Nc1c(C(=O)NCc2ccco2)cnn1-c1ccccc1)c1ccc(F)cc1	i	0.9	104	nt	nt	-13	-3.3
Cc1cc(C)c(S(=O)(=O)NCc2ccncc2)c(C)c1	i	0.94	105	3	150	-9	0.7
CCC/C(=C1/C(=O)CC(C)(C)C(C(=O)OC)C1=O)N1CCCC1 (configuration not stated)	i	1	101	10	138	-18	-0.8
CCOC(=O)N1CCC(NC(=S)Nc2ccc3nc(N4CCN(C)CC4)cc(C)c3c2)CC1	i	0.85	75	57	57	-4	nt
Cc1cc(C)nc(N2CCC(C(=O)O)CC2)n1	i	1.2	98	29	91	2	-1.1
COc1cccc(CNC(=O)Cn2cccc2)c1	nt	nt	88	nt	nt	-10	-0.4
CC(C)N(Cc1cc2ccccc2[nH]c1=O)C(=O)c1cccnc1	i	0.94	101	nt	nt	-2	-1.1

Six of the entries above in order of the PKD1 kinase inh value, smallest number first.
canonical_smiles,PKD1 kinase inh
O=c1oc2ccccc2c(NCc2cccc(F)c2)c1[N+](=O)[O-],-14
CCC1(c2ccccc2)NC(=O)N(CC(=O)N2CCN(S(=O)(=O)c3ccccc3)CC2)C1=O (configuration not stated),-12
Cc1cc2cccc(C)c2nc1SCC(=O)N(C)c1nc(-c2ccccc2)cs1,-7
Cc1cc(C)n(C(=O)c2ccc(C)c(S(=O)(=O)N3CCOCC3)c2)n1,-6
CN(Cc1nc2ccc(Cl)cc2[nH]1)Cc1nc(-c2cnccn2)no1,-1
COc1cccc(C(=O)CN2CCN(S(=O)(=O)c3cccc([N+](=O)[O-])c3)CC2)c1,7

As entered above:
Under HSV augment primary fold, CC(C)N(Cc1cc2ccccc2[nH]c1=O)C(=O)c1cccnc1 is entered as 0.94
Under PKD1 kinase inh, CCC(CO)NCc1ccc(OCC(=O)Nc2cccc(C(F)(F)F)c2)c(OC)c1 (configuration not stated) is entered as 6

More compounds follow:
SMILES	HSV augment	HSV augment primary fold	RGS16-Gao HTS	Insulin prom inh	Insulin prom inh cell count	PKD1 kinase inh	GALR2 ag
CCOC(=O)c1c(NC(=O)CSc2nnc(-c3ccco3)o2)sc(C)c1C	i	0.83	98	-37	84	4	-0.5
COc1ccc(N(CC(=O)Nc2cc(C(=O)O)ccc2C)S(=O)(=O)c2c(C)noc2C)cc1	i	0.75	97	nt	nt	-2	-1.7
NC(=S)NNc1cccc(Cl)c1	i	0.94	101	54	96	0	-2.2
NC(=O)CCC(NS(=O)(=O)c1ccc(Cl)cc1)C(=O)NCc1ccc(Cl)cc1 (configuration not stated)	i	0.91	6.5*	6	123	10	-1.1
COc1ccc(-c2nnn(CC(=O)N(CCCO)C(C(=O)NC3CCCC3)c3ccc(F)cc3)n2)cc1 (configuration not stated)	i	1	100	nt	nt	-5	nt
Cc1ccc(-c2nn3c(C)nnc3s2)cc1NC(=O)C(C)C	i	0.9	100	nt	nt	4	0.5
Cc1ccc(N=C2NC(=O)C(CC(=O)NCc3ccccc3)S2)cc1C (configuration not stated)	i	1	100	-54	76	1	-1.7
O=C(CCl)NCCCN(C(=O)C(Cl)Cl)c1ccc([N+](=O)[O-])cc1	i	0.98	101	nt	nt	nt	nt
CC(C)C(=O)NCCCc1ccccc1	i	0.85	104	0	75	-13	-1.0
O=C(NCCN1CCN(c2ccccc2)CC1)c1ccc(NC(=O)C2CCCO2)cc1 (configuration not stated)	i	0.74	100	24	81	-11	-0.6
O=C(CCC1CCCN(C2C3CC4CC(C3)CC2C4)C1)NCc1ccc(F)c(F)c1 (configuration not stated)	i	1	98	nt	nt	-6	nt
CCS(=O)(=O)NC(C)C(c1cccs1)N1CCN(c2ccc(OC)cc2)CC1 (configuration not stated)	i	0.99	108	-167	86	-6	nt
CCN(CC)CCN(C(=O)Cn1nnc(-c2ccc(OC)c(OC)c2)n1)C(C(=O)NC1CCCC1)c1ccc(F)cc1 (configuration not stated)	i	0.78	103	10	102	-2	0.7
Cc1ccc2[nH]c(=O)c(-c3nc4c(C)cccn4c3NCc3ccco3)cc2c1	i	0.67	118	-93	102	-2	-3.0
CCOC(=O)Cc1csc(NC(=S)NC(=O)c2ccc(F)cc2)n1	nt	nt	100	nt	nt	-7	-2.8
CCOC(=O)C1(Cc2ccccc2)CCN(Cc2ccc3cc(NC(C)=O)ccc3n2)CC1	i	0.94	100	nt	nt	-1	nt
O=C(NCCN1C(=O)C2C3C=CC(C3)C2C1=O)NCc1ccccc1 (configuration not stated)	i	0.98	103	nt	nt	2	-2.1
Cn1c(=O)c2c(ncn2Cc2cc(-c3ccccc3)no2)n(C)c1=O	i	0.83	99	67	143	-6	0.0
CCc1cccc2c(C(=O)Cn3nnc(-c4ccc(OC)c(OC)c4)n3)c[nH]c12	nt	nt	104	14	146	4	0.0
Cc1ccc(OCC(=O)c2cc(C)n(CC(F)(F)F)c2C)c([N+](=O)[O-])n1	i	1	109	nt	nt	7	nt

Part of the list above, reduced to PKD1 kinase inh.
SMILES | PKD1 kinase inh
CCN(CC)CCN(C(=O)Cn1nnc(-c2ccc(OC)c(OC)c2)n1)C(C(=O)NC1CCCC1)c1ccc(F)cc1 (configuration not stated) | -2
Cc1ccc2[nH]c(=O)c(-c3nc4c(C)cccn4c3NCc3ccco3)cc2c1 | -2
O=C(NCCN1C(=O)C2C3C=CC(C3)C2C1=O)NCc1ccccc1 (configuration not stated) | 2
CCOC(=O)Cc1csc(NC(=S)NC(=O)c2ccc(F)cc2)n1 | -7
Cc1ccc(OCC(=O)c2cc(C)n(CC(F)(F)F)c2C)c([N+](=O)[O-])n1 | 7
O=C(CCC1CCCN(C2C3CC4CC(C3)CC2C4)C1)NCc1ccc(F)c(F)c1 (configuration not stated) | -6

Next results
SMILES	HSV augment	HSV augment primary fold	RGS16-Gao HTS	Insulin prom inh	Insulin prom inh cell count	PKD1 kinase inh	GALR2 ag
CC1CCCN(c2cc(N(C)CCO)c([N+](=O)[O-])c3nonc23)C1 (configuration not stated)	i	1	101	53	88	-9	nt
COc1coc(C(O)CN)cc1=O (configuration not stated)	i	1.1	72	13	82	-5	-2.7
O=C(CN1C(=O)COc2ccccc21)NCCCN1CCc2ccccc2C1	i	0.94	102	11	96	7	-0.8
Cc1nnc2n(-c3ccccc3)c(=O)c3c4c(sc3n12)COC(C(C)C)C4 (configuration not stated)	i	0.96	100	57	111	6	-1.1
CCCn1c(SCC(=O)C(C)(C)C)nc2ccccc21	i	0.89	35	-18	95	-1	nt
COc1ccccc1-c1nc(C#N)c(NCCCn2ccnc2)o1	i	0.98	93	nt	nt	nt	nt
O=C(O)CCC(=O)Nc1ccc(Cc2ccc(NC(=O)CCC(=O)O)c(O)c2)cc1O	i	0.85	98	31	133	-2	-1.9
